Screening results (PubChem)
HSV replic up: HSV replication enhancement; HSV replication augmentation in cells, fold increase; maximum fold increase; 220,000 compounds, 0.005% hits;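 active = peak rise of 1.5-fold or more in the series; tested in PC3 cells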;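 note: first round at 10 µM; read as green reporter fluorescence; hits show the peak of a series up to 25 µM; 1 = signal of infected wells without compound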
GALR2 ag: activates the human galanin receptor 2. 140,000 compounds, 0.48% hits. O43603. GALR2-expressing cells, agonist activation read-out. activation, %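 (tested at 5 µM)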;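 active = above mean plus 3 SD of all compounds, about 5% in these data, not always enough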;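 note: 0% = vehicle buffer wells and 100% = reference agonist at full effect; tested in CHO reporter cells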
Target sequence (O43603 whole entry, looked up): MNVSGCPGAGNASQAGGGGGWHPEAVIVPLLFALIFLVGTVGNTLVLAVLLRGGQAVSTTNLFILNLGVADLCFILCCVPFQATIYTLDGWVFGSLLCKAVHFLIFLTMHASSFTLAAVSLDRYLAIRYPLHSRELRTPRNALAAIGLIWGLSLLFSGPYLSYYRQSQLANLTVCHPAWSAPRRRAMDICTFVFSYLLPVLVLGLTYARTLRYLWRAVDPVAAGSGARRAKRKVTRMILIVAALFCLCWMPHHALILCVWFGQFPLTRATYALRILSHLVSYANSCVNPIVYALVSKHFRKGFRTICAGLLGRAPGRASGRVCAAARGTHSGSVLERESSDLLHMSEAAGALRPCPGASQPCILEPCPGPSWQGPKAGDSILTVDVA
PKD1 inh: PKD1 (human) kinase inhibition. Q15139. PKD1 kinase fluorescence polarization assay. inhibition, %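 (about 10 µM by stock and volumes)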. 200,000 compounds, 0.056% hits;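 active = inhibition of 50% or more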;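 note: controls were vehicle for no effect and a reference inhibitor for full effect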
RGS16-Gao HTS: modulates binding between human RGS16 and Galphao; O15492+P09471; bead-based flow cytometry RGS16-Galphao binding, fluorescence; actives lie on both sides; binding response (% of control), % at 10 µM; 220,000 compounds, 0.38% hits; AID 1441;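 active = below 25% or above 175%, edge rows of some plates excepted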;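 note: Galphao activated by GDP with aluminum fluoride before binding; 100% = wells without compound and 0% = beads without RGS; some results beyond the cut were filed as inactive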
Target sequence (O15492 whole entry, looked up): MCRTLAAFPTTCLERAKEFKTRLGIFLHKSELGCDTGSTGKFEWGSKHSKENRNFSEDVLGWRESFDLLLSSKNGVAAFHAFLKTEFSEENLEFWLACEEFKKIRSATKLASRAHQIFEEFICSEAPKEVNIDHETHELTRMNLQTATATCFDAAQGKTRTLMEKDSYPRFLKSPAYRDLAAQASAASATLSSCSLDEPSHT
Target sequence (P09471 whole entry, looked up): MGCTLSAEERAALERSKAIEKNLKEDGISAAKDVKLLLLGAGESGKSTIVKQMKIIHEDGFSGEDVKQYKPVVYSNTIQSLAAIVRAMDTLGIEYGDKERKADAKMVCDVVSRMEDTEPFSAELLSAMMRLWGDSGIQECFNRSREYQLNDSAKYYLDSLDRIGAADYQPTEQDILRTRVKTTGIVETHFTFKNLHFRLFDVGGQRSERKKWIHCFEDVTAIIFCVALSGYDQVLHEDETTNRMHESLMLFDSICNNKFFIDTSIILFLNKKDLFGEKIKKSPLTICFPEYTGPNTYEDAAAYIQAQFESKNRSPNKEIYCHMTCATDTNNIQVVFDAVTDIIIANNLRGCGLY
Insulin prom inh: TRM-6 insulin promoter activity inhibition; 130,000 compounds, 0.9% hits; AID 1273; TRM-6 cells (human fetal islet line), insulin promoter-eGFP reporter, imaging; reporter expression induced with tamoxifen; inhibition, % at 2 µM;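 active = inhibition above the mean plus 3 SD, with well images judged a real hit on visual review, cut at about 60% in these data, passing the limit was not always enough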
Insulin prom inh cell count: second read-out of Insulin prom inh, no call of its own (marks repeat the call); normalized cell count, %; measured here: cell count, toxicity; reference of the scale not given here;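 cells exposed to compound for 48 h; stained nuclei by imaging scaled within each plate; lower means fewer cells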
HSV replic up primary fold: recorded beside HSV replic up, whose call it bears; fold increase; compound at 10 µM; measured here: primary screen fold increase 10 uM; tested in PC3 cells;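 GFP signal in the first replicate; 1 = infected wells without compound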
Numbers without * were called inactive.

For Cc1ccc(Cl)cc1NC(=O)c1ccccn1 the results were HSV replic up inactive, PKD1 inh 7, RGS16-Gao HTS 87, Insulin prom inh 17, Insulin prom inh cell count 108 and HSV replic up primary fold 1.
For Cc1ccccc1-n1c(SCC(=O)N/N=C/c2c(C)nn(-c3ccccc3)c2C)nc2ccccc2c1=O the results were HSV replic up inactive, GALR2 ag 0.4, PKD1 inh -7, RGS16-Gao HTS 95, Insulin prom inh 30, Insulin prom inh cell count 101 and HSV replic up primary fold 0.72.
Screening COc1ccc(CCN(C)C(=S)NC(=O)c2ccc(F)cc2Cl)cc1OC returned HSV replic up inactive, PKD1 inh -6, RGS16-Gao HTS 99 and HSV replic up primary fold 0.92.
Cn1c(CSc2ncccn2)nnc1SCC(=O)N1CCCC1 was read as HSV replic up inactive, PKD1 inh 7, RGS16-Gao HTS 103, Insulin prom inh -53, Insulin prom inh cell count 99 and HSV replic up primary fold 0.95.
For O=C(CSc1nc2ccccc2[nH]1)NC(=O)NCc1ccco1 the results were HSV replic up inactive, GALR2 ag -0.4, PKD1 inh 2, RGS16-Gao HTS 110 and HSV replic up primary fold 0.98.
`Cc1ccc(-n2c(Cn3cnc4ccccc43)nnc2SCC(=O)O)cc1` gave HSV replic up inactive, GALR2 ag -1.0, PKD1 inh -12, RGS16-Gao HTS 104, Insulin prom inh -8, Insulin prom inh cell count 132 and HSV replic up primary fold 0.97.
`CCOC(=O)C1=C(C)NC(SCC(N)=O)=C(C#N)C1c1ccncc1` (stereo not given) gave HSV replic up inactive, GALR2 ag -1.0, PKD1 inh -16, RGS16-Gao HTS 107 and HSV replic up primary fold 1.
COc1cc(C)c(C)cc1S(=O)(=O)N1CCN(Cc2ccccc2)CC1 was read as HSV replic up inactive, GALR2 ag -2.9, PKD1 inh -1, RGS16-Gao HTS 93, Insulin prom inh -7, Insulin prom inh cell count 119 and HSV replic up primary fold 0.94.
CC(C)NC(=O)c1onc(CSc2ccc(Cl)cc2)c1C(=O)NC(C)C was read as HSV replic up inactive, RGS16-Gao HTS 100 and HSV replic up primary fold 0.89.
`N=C1CCCN1CC(=O)c1ccc(Cl)cc1` gave HSV replic up inactive, GALR2 ag -1.0, PKD1 inh 6, RGS16-Gao HTS 102 and HSV replic up primary fold 1.2.
For Cn1c2c(c(=O)n(C)c1=O)C(c1ccc(O)cc1)Nc1ccccc1O2 (stereo not given) the results were GALR2 ag -1.8, PKD1 inh -1, RGS16-Gao HTS 109, Insulin prom inh -21 and Insulin prom inh cell count 120.
CCCOc1ccc(N2C(=O)CC(N3CCOCC3)C2=O)cc1 (stereo not given) was read as HSV replic up inactive, GALR2 ag -1.3, PKD1 inh -1, RGS16-Gao HTS 99, Insulin prom inh 0, Insulin prom inh cell count 122 and HSV replic up primary fold 1.
NNc1nc2c(Cl)c(Cl)ccc2s1 was read as HSV replic up inactive, GALR2 ag -1.0, PKD1 inh 3, RGS16-Gao HTS 105, Insulin prom inh 43, Insulin prom inh cell count 56 and HSV replic up primary fold 1.
For CN(Cc1cnccn1)Cc1ccccc1OCC(O)CN1CCc2ccccc2C1 (stereo not given) the results were HSV replic up inactive, PKD1 inh -5, RGS16-Gao HTS 102 and HSV replic up primary fold 1.1.
CCOCCn1c(COc2ccccc2)nc2ccccc21 was read as HSV replic up inactive, GALR2 ag -1.3, PKD1 inh -4, RGS16-Gao HTS 110, Insulin prom inh 31, Insulin prom inh cell count 91 and HSV replic up primary fold 0.97.
Cc1ccc(NC(=S)NC(=O)CC2CC(C)(C)OC2=O)cc1 (stereo not given) was read as HSV replic up inactive, PKD1 inh -3, RGS16-Gao HTS 101 and HSV replic up primary fold 1.1.
`COc1cc(CNn2nnnc2N)ccc1OCc1c(Cl)cccc1Cl` gave HSV replic up inactive, GALR2 ag -2.3, PKD1 inh -1, RGS16-Gao HTS 100, Insulin prom inh -12, Insulin prom inh cell count 55 and HSV replic up primary fold 0.75.
For Cc1ccc(C)n1NC(=O)c1cccs1 the results were HSV replic up inactive, GALR2 ag -1.0, PKD1 inh -8, RGS16-Gao HTS 96, Insulin prom inh -28, Insulin prom inh cell count 157 and HSV replic up primary fold 1.
O=c1cc(-c2cccc([N+](=O)[O-])c2)[nH][nH]1 was read as HSV replic up inactive, GALR2 ag -0.8, PKD1 inh -11, RGS16-Gao HTS 93, Insulin prom inh -17, Insulin prom inh cell count 122 and HSV replic up primary fold 0.95.
For CCOc1nc(C)cc(C)c1S(=O)(=O)c1cccc(C)c1 the results were HSV replic up inactive, PKD1 inh 6, RGS16-Gao HTS 102 and HSV replic up primary fold 1.1.
Screening CCc1ccc(C(=O)Nc2ccc(C)c(NS(C)(=O)=O)c2)cc1 returned HSV replic up inactive, RGS16-Gao HTS 99 and HSV replic up primary fold 1.
`N#Cc1c(NC2CCCCC2)nc(-c2ccco2)c2c1CCCC2` gave HSV replic up inactive, GALR2 ag 1.4, PKD1 inh 3, RGS16-Gao HTS 99, Insulin prom inh 14, Insulin prom inh cell count 126 and HSV replic up primary fold 1.1.
CN(CCc1ccccn1)C(=O)c1cccnc1Oc1ccccc1 was read as HSV replic up inactive, RGS16-Gao HTS 94 and HSV replic up primary fold 0.9.
COc1cc(C(=O)N2CCN(S(=O)(=O)c3ccc(C)cc3)CC2)ccc1OCc1c(C)noc1C was read as HSV replic up inactive, GALR2 ag -0.3, PKD1 inh -12, RGS16-Gao HTS 103, Insulin prom inh -7, Insulin prom inh cell count 127 and HSV replic up primary fold 0.89.
Cc1[nH]nc2c1/C(=N\O)CCC2 was read as HSV replic up inactive, PKD1 inh -8, RGS16-Gao HTS 94, Insulin prom inh -17, Insulin prom inh cell count 142 and HSV replic up primary fold 1.1.
For COC(=O)[C@H](CCSC)NC(=O)NCc1ccc(S(N)(=O)=O)cc1 the results were HSV replic up inactive, GALR2 ag -2.5, PKD1 inh -3, RGS16-Gao HTS 98 and HSV replic up primary fold 0.94.
Screening NC(=O)c1cccnc1Oc1ccccc1 returned HSV replic up inactive, RGS16-Gao HTS 82 and HSV replic up primary fold 0.99.
Screening N#CCSc1nnc(-c2ccc(S(=O)(=O)N3CCOCC3)cc2)n1CC1CCCO1 (stereo not given) returned HSV replic up inactive, GALR2 ag -2.0, PKD1 inh -11, RGS16-Gao HTS 93, Insulin prom inh 19, Insulin prom inh cell count 58 and HSV replic up primary fold 0.81.
`CCOc1ccc(C(NC(=O)c2ccco2)c2ccc(OC)c(OC)c2)cc1` (stereo not given) gave HSV replic up inactive, GALR2 ag -1.7, PKD1 inh -1, RGS16-Gao HTS 85, Insulin prom inh -443, Insulin prom inh cell count 42 and HSV replic up primary fold 1.1.
`CC(=O)N1CCCc2cc(S(=O)(=O)Nc3ccc(C)cc3C)ccc21` gave HSV replic up inactive, GALR2 ag -1.1, PKD1 inh 5, RGS16-Gao HTS 104, Insulin prom inh -50, Insulin prom inh cell count 97 and HSV replic up primary fold 1.
CC(NS(=O)(=O)c1ccccc1)C(c1cccs1)N1CCN(c2ccccc2)CC1 (stereo not given) was read as HSV replic up inactive, GALR2 ag -3.0, PKD1 inh -6, RGS16-Gao HTS 101 and HSV replic up primary fold 1.2.
Screening Cn1nccc1NC(=O)Nc1cccc(Cl)c1Cl returned HSV replic up inactive, RGS16-Gao HTS 101 and HSV replic up primary fold 1.1.
`O=C1NN=C(CSc2n[nH]c(=S)s2)CS1` gave HSV replic up inactive, PKD1 inh -3, RGS16-Gao HTS -8 and HSV replic up primary fold 0.94.
`COCCn1c(SCC(=O)N2CC(=O)Nc3ccccc32)nc2ccccc2c1=O` gave PKD1 inh 5, RGS16-Gao HTS 114, Insulin prom inh -29 and Insulin prom inh cell count 62.
CCOC(=O)CN1NC2(CCCCC2)NC1=S was read as HSV replic up inactive, GALR2 ag -0.8, PKD1 inh 0, RGS16-Gao HTS 94, Insulin prom inh -40, Insulin prom inh cell count 118 and HSV replic up primary fold 1.
O=C(Nc1nc2ccc(Oc3ccccc3)cc2s1)c1cc([N+](=O)[O-])ccc1N1CCOCC1 was read as HSV replic up inactive, GALR2 ag -1.3, PKD1 inh 0, RGS16-Gao HTS 100 and HSV replic up primary fold 0.98.
`COc1cccc2c1OC[C@@H](CO)[C@H]2N(C)C(=O)Nc1ccc(Cl)cc1Cl` gave GALR2 ag -2.5, PKD1 inh -4 and RGS16-Gao HTS 100.
`COc1ccccc1N(CC(=O)NCc1ccccc1)S(C)(=O)=O` gave HSV replic up inactive, GALR2 ag -0.8, PKD1 inh -10, RGS16-Gao HTS 100, Insulin prom inh 39, Insulin prom inh cell count 92 and HSV replic up primary fold 0.98.
Screening O=C1CN(C(=O)c2ccccc2)c2ccccc2N1 returned HSV replic up inactive, GALR2 ag -0.5, PKD1 inh -9, RGS16-Gao HTS 100, Insulin prom inh -280, Insulin prom inh cell count 89 and HSV replic up primary fold 0.9.
`CC(CCc1ccccc1)NC(=O)C1CCN(S(=O)(=O)N2CCCCC2)CC1` (stereo not given) gave HSV replic up inactive, GALR2 ag -1.9, PKD1 inh -4, RGS16-Gao HTS 35 and HSV replic up primary fold 0.81.

Fetched by compound from above, six records:
`CC(CCc1ccccc1)NC(=O)C1CCN(S(=O)(=O)N2CCCCC2)CC1` (stereo not given) gave HSV replic up inactive, GALR2 ag -1.9, PKD1 inh -4, RGS16-Gao HTS 35 and HSV replic up primary fold 0.81.
`N#Cc1c(NC2CCCCC2)nc(-c2ccco2)c2c1CCCC2` gave HSV replic up inactive, GALR2 ag 1.4, PKD1 inh 3, RGS16-Gao HTS 99, Insulin prom inh 14, Insulin prom inh cell count 126 and HSV replic up primary fold 1.1.
`O=C1NN=C(CSc2n[nH]c(=S)s2)CS1` gave HSV replic up inactive, PKD1 inh -3, RGS16-Gao HTS -8 and HSV replic up primary fold 0.94.
Cc1[nH]nc2c1/C(=N\O)CCC2 was read as HSV replic up inactive, PKD1 inh -8, RGS16-Gao HTS 94, Insulin prom inh -17, Insulin prom inh cell count 142 and HSV replic up primary fold 1.1.
For COC(=O)[C@H](CCSC)NC(=O)NCc1ccc(S(N)(=O)=O)cc1 the results were HSV replic up inactive, GALR2 ag -2.5, PKD1 inh -3, RGS16-Gao HTS 98 and HSV replic up primary fold 0.94.
`COc1cccc2c1OC[C@@H](CO)[C@H]2N(C)C(=O)Nc1ccc(Cl)cc1Cl` gave GALR2 ag -2.5, PKD1 inh -4 and RGS16-Gao HTS 100.

Carrying on:
`OC(CNCCc1ccc(C(F)(F)F)cc1)COc1ccc2ccccc2c1` (stereo not given) gave HSV replic up inactive, GALR2 ag 3.9, PKD1 inh 4, RGS16-Gao HTS 109, Insulin prom inh 14, Insulin prom inh cell count 110 and HSV replic up primary fold 0.74.
For COc1cc(CC(=O)OCC(=O)NC2CC2)cc(OC)c1OC the results were HSV replic up inactive, PKD1 inh -3, RGS16-Gao HTS 98, Insulin prom inh 0, Insulin prom inh cell count 114 and HSV replic up primary fold 0.84.
For Cc1nn2c(C)c(C(=O)Nc3ccccc3)cnc2c1C#N the results were HSV replic up inactive, GALR2 ag 0.4, PKD1 inh -8, RGS16-Gao HTS 101, Insulin prom inh 34, Insulin prom inh cell count 56 and HSV replic up primary fold 0.82.
For O=[N+]([O-])c1ccc(N2CCC(O)CC2)nc1 the results were HSV replic up inactive, GALR2 ag -2.1, PKD1 inh -1, RGS16-Gao HTS 101, Insulin prom inh 23, Insulin prom inh cell count 70 and HSV replic up primary fold 0.99.
`C=CCn1c(SCC(N)=O)nnc1-c1cnccn1` gave HSV replic up inactive, RGS16-Gao HTS 97 and HSV replic up primary fold 0.94.
COCCOC(=O)c1sc(=S)n(CCOC)c1N was read as GALR2 ag -0.5, PKD1 inh -6, RGS16-Gao HTS 102, Insulin prom inh -9 and Insulin prom inh cell count 100.
For CCOC(=O)N1CCC(Nc2ncnc3c2cnn3-c2ccc(Cl)cc2)CC1 the results were HSV replic up inactive, GALR2 ag -1.5, PKD1 inh -5, RGS16-Gao HTS 100, Insulin prom inh -93, Insulin prom inh cell count 111 and HSV replic up primary fold 0.87.
Screening CN(C)S(=O)(=O)c1ccc(NC=C(C#N)C#N)cc1 returned HSV replic up inactive, RGS16-Gao HTS 100 and HSV replic up primary fold 0.94.
Screening Cc1cccc(NC(=O)C2CCCN2C(=O)OCC(C)C)c1 (stereo not given) returned HSV replic up inactive, GALR2 ag -1.7, PKD1 inh -9, RGS16-Gao HTS 104, Insulin prom inh -29, Insulin prom inh cell count 74 and HSV replic up primary fold 0.9.
For Cc1c(C(=O)N2CCCCCC2)oc2ccccc12 the results were HSV replic up inactive, GALR2 ag -1.7, PKD1 inh -5, RGS16-Gao HTS 89, Insulin prom inh 12, Insulin prom inh cell count 131 and HSV replic up primary fold 0.88.
Screening Cc1c(C(=O)C(=O)N2CCN(C)CC2)c2ccccc2n1C returned HSV replic up inactive, PKD1 inh -1, RGS16-Gao HTS 102, Insulin prom inh -67, Insulin prom inh cell count 186 and HSV replic up primary fold 0.99.
